Screening results from PubChem.
miR-21 reporter: miR-21 reporter, rising signal | HeLa miR-21 FLuc reporter, luciferase, 48 h | Potency, µM (series often up to 38.3 µM), for inactives: top-dose reporter change, positive = more light | 340,000 tested, under 10 active; active = well fitted rising curve with a large enough effect; inconclusive = small, poorly fitted or top-dose-only effect; inactive = no such curve, though single readings can be large or run the other way;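 note: % of control where 0% means no effect; miR-21 action dims this reporter so a rising signal means less miR-21 action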
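Using DMEM plus 10% FBS, HeLa miR-21-FLuc cells are incubated with test compounds (final up to about 40uM) for 48 hours; firefly luciferase signal is then imaged following reagent-mediated lysis.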
The depositor's hits bear a star; ? = inconclusive. Some of the compounds tested (hit frequency here may not be typical).

compound | miR-21 reporter
Cc1ccc(NC(=O)C2CCCN(c3nnc(C)c4c(C)n(-c5ccccc5)nc34)C2)c(Cl)c1 (stereo not drawn) | 15.5%
Cc1ccc(-n2c(=O)c3c(c4cc(C)ccc4n3C)n(CC(=O)NCc3ccccc3Cl)c2=O)cc1 | -1.1%
Cc1cc(C)c2c(c1)NC(=O)C2(O)c1c[nH]c2ccccc12 (stereo not drawn) | -10.8%
O=C(Cn1c(=O)n(-c2ccccc2)c(=O)c2ccc(C(=O)NCc3ccc4c(c3)OCO4)cc21)Nc1ccc(Br)cc1F | 2.9%
O=C(/C=C/c1ccccc1[N+](=O)[O-])Oc1ccccc1 | 1.5%
COC(=O)c1c(NC(=O)c2ccc(S(=O)(=O)N(C)C3CCCCC3)cc2)sc2c1CCN(C)C2 | 15.3%
Cc1ccc(N2CCN(C(=O)Cn3ncc4c([nH]c5ccc(C)cc54)c3=O)CC2)c(C)c1 | 0.5%
C=C(C)CSc1nc2sc3c(c2c(=O)n1-c1ccccc1)CCC(C)C3 (stereo not drawn) | -1.5%
Cc1ccccc1Nc1sc(C(=O)c2ccc(F)cc2)c(N)c1C(=O)NCCc1ccccc1 | 3.0%
Cc1ccc(Cl)c2sc(NC(=O)c3ccc(S(=O)(=O)N4CCCC4)cc3)nc12 | -0.5%
O=C(Nc1ccc(C(=O)OCc2cc(=O)n3c4c(sc3n2)CCCC4)cc1)c1ccc(F)cc1 | -2.4%
CC1CCc2c(sc3nnn(CC(=O)Nc4cccc(C(F)(F)F)c4)c(=O)c23)C1 (stereo not drawn) | -0.1%
Cc1cccc(-n2cc(-c3ccccc3)nc2SCC(=O)Nc2ccccc2Cl)c1 | 1.6%
COc1ccccc1C(=O)c1c(N)c(-c2nc(-c3ccccc3)cs2)c2ccccn12 | 24.5%
Cc1c(C(=O)Nc2cccc(C(F)(F)F)c2)sc2nc3n(c(=O)c12)CCCC3 | -14.2%
CCOC(=O)N1CCc2c(sc3c2c(=O)n(-c2ccccc2)c(=O)n3CC(=O)Nc2ccc(OC)cc2OC)C1 | 8.7%
COc1ccccc1C(=O)Nc1ccccc1SCc1cc(=O)c2ccccc2[nH]1 | -6.3%
Cc1cc(C)cc(-n2ccnc(NCCc3ccccc3)c2=O)c1 | -14.8%
Cc1ccccc1-c1noc(-c2ccc(N3CCCC3)c([N+](=O)[O-])c2)n1 | -26.3%
CCOC(=O)c1ccc(NC(=O)Cc2noc3ccc(C)cc23)cc1 | -59.2%

(continued)
compound | miR-21 reporter
Cc1ccc(Cn2c(=O)n(Cc3ccccc3)c(=O)c3oc4ccccc4c32)cc1 | 3.7%
CCCc1cnc2c(c1SCC(=O)N1CCC(C)CC1)c(=O)n(C)c(=O)n2C | 7.7%
CC(C)CCNC(=O)c1cnc2sc(N3CCCCC3)nn2c1=O | -3.0%
CC(C)c1ccc(Nc2c(-c3ccc(N4CCOCC4)cc3)nc3ncccn23)cc1 | -5.5%
O=S(=O)(NCC(c1ccccc1)N1CCc2ccccc21)c1ccccc1 (stereo not drawn) | 14.0%
CCOc1ccc(N(c2nc(-c3ccc(OC)c(OC)c3)no2)c2nc(-c3ccc(OC)c(OC)c3)no2)cc1 | -2.0%
COc1cccc(NC(=O)CCc2nc(-c3cc(OC)c(OC)c(OC)c3)no2)c1 | 6.1%
Cc1ccc(C)c(N(C)S(=O)(=O)c2ccc3[nH]cc(C(=O)NC4CCCC4)c(=O)c3c2)c1 | 27.8%
Cc1cccc(-n2c(C)nc3cc(C(=O)NC4CCCCCC4)ccc32)c1 | -0.9%
COC(=O)c1ccc(Cn2c(SCc3ccccc3F)nc3ccncc32)cc1 | -6.5%
CCC(=O)N1CCc2cc(Br)cc(S(=O)(=O)NCCc3ccccc3)c21 | 9.9%
Cc1nc(SCC(=O)N2CCN(c3ccccc3)CC2)[nH]c(=O)c1C | -2.0%
CC1CCCCN1S(=O)(=O)c1ccc(F)c(C(=O)Nc2ccccc2C(F)(F)F)c1 (stereo not drawn) | -21.2%
CCc1ccc(NS(=O)(=O)c2[nH]ncc2C(=O)OC)cc1 | -2.5%
COc1ccc(/C=C(\C#N)c2nc(-c3cc(Cl)ccc3OC)cs2)cc1 | -7.1%
CCOc1ccc(C(=O)c2oc3ccccc3c2NC(=O)c2cc(=O)c3ccc(C)cc3o2)cc1 | -2.2%
Cc1nn(CC(=O)Nc2ccccc2F)c(=O)c2c(C)n(-c3ccc(Cl)cc3)nc12 | -3.7%
CC1CCN(C(=O)Cn2cc(SCC(=O)NCc3ccccc3Cl)c3ccccc32)CC1 | 9.9%
COc1ccc(/C=C\C(=O)NC2CC(=O)N(c3ccc(F)cc3)C2)cc1OC (stereo not drawn) | -0.7%
Cc1ccc(Cl)cc1NC(=O)C1CCC(CNS(=O)(=O)c2cccc3nsnc23)CC1 (stereo not drawn) | -2.4%

Carrying on:
compound | miR-21 reporter
CCCCN(Cc1ccccc1)C(=O)c1oc(=O)c2ccccc2c1-c1ccc(C)cc1 | ?
CCCCn1cc(S(=O)(=O)c2ccc(CC)cc2)c(=O)c2cc(F)c(N3CCOCC3)cc21 | 5.7%
COc1ccc(NC(=O)CC2C(=O)N(c3ccccc3)C(=O)N2C2CCCCC2)cc1 (stereo not drawn) | 0.0%
Cn1cnc2c(=O)oc3ccc(S(=O)(=O)Nc4ccc(F)cc4)cc3c21 | 1.2%
COc1ccc(-c2cc(C(=O)Nc3cnn(Cc4ccc(F)cc4)c3)no2)cc1OC | -19.2%
Cc1ccc(Cn2c(C)c(CNC(C)c3ccccc3)c(C(=O)O)c2C)cc1 (stereo not drawn) | 3.5%
CCN(Cc1ccccc1)Cc1c(O)ccc2oc(C)c(C(=O)Nc3ccccc3C)c12 | ?
CCCc1nn2c(=O)cc(COC(=O)c3cccc(NC(=O)c4ccc(OCC)cc4)c3)nc2s1 | -55.0%
COc1ccc2c(CNCCc3ccccc3)c(C(=O)O)n(Cc3cccc(F)c3)c2c1 | 12.0%
Cc1ccc(-c2nc3cccc(C)n3c2Nc2ccc3c(c2)OCCO3)cc1 | -27.5%
COc1ccc(S(=O)(=O)N(CC(=O)Nc2ccc3c(c2)OCO3)c2ccc(C)cc2)cc1 | 1.4%
CN(C)S(=O)(=O)N(CC(=O)NCCSc1ccc(Cl)cc1)c1ccccc1 | -12.2%
COc1ccc(C2=CC(c3ccc(F)cc3)n3ncc(C(=O)Nc4ccc(C)cc4)c3N2)cc1 (stereo not drawn) | -0.8%
CCc1cccc(C)c1NC(=O)C1=C(C)C(=O)OC12CCC(C)CC2 (stereo not drawn) | 2.7%
COc1cccc(OC)c1C(=O)Nc1nnc(C)s1 | 3.3%
COc1cc(OC)c(NC(=O)c2ccc3nc(C(C)C)oc3c2)cc1Cl | -15.2%
Cc1ccc2oc(C(=O)N(Cc3ccccc3F)C3CCS(=O)(=O)C3)c(C)c2c1 (stereo not drawn) | 2.8%
Cc1ccc(-c2noc(-c3nnn(-c4cccc(C(F)(F)F)c4)c3N)n2)cc1 | -16.5%
COc1ccccc1Nc1ncc2c(n1)CCN(Cc1ccc(C)s1)C2 | -7.0%
CCc1ccccc1NC(=O)N1CC(C)Sc2ccccc21 (stereo not drawn) | 5.0%

Filtered by structure, the entries above with a furan ring, fused or not
compound | miR-21 reporter
Cc1ccc(Cn2c(=O)n(Cc3ccccc3)c(=O)c3oc4ccccc4c32)cc1 | 3.7%
CCOc1ccc(C(=O)c2oc3ccccc3c2NC(=O)c2cc(=O)c3ccc(C)cc3o2)cc1 | -2.2%
CCN(Cc1ccccc1)Cc1c(O)ccc2oc(C)c(C(=O)Nc3ccccc3C)c12 | ?
Cc1ccc2oc(C(=O)N(Cc3ccccc3F)C3CCS(=O)(=O)C3)c(C)c2c1 (stereo not drawn) | 2.8%

Going on with the list.
compound | miR-21 reporter
COc1ccc(-c2nnc(SCC(=O)Nc3c(C)cccc3C)nc2-c2ccc(OC)cc2)cc1 | 15.3%
Cc1ccccc1CNC(=O)Cc1csc2ccccc12 | -37.7%
Cc1ccccc1-c1nc2c(c(SCc3cccc(Cl)c3)n1)Cc1c(CO)cnc(C)c1O2 | -0.6%
Cc1cccc(-c2nc(C)c(CCNC(=O)C(=O)Nc3ccc(C)c(C)c3)s2)c1 | -0.6%
CCc1ccccc1NC(=O)Cn1c(=O)n(Cc2ccc3c(c2)OCO3)c(=O)c2ccc(C(=O)NC3CCCCC3)cc21 | -5.7%
Cc1nnc(NCc2ccccc2)c2c1nnn2Cc1ccc(F)cc1 | 0.9%
COc1ccc2cc3cc(C(=O)NCCc4ccccc4)sc3nc2c1Cl | -28.1%
Cc1ccc2nc(Cl)c3cc(C(=O)NC4CCC(C)CC4)sc3c2c1 (stereo not drawn) | -2.4%
COc1ccc(CNC(=O)c2cc3ccccn3n2)c(OC)c1 | -0.4%
COc1ccc(C2CC(=O)c3cc(-c4nc(-c5cccc([N+](=O)[O-])c5)cs4)c(=O)n(-c4ccc(OC)cc4)c3C2)cc1 (stereo not drawn) | 0.1%
Cc1ccc2sc(NC(=O)c3ccc4c(c3)OCCO4)nc2c1C | -22.8%
O=C(CN1C=NS(=O)(=O)c2ccccc21)Nc1ccc(F)cc1 | 1.8%
O=C(c1ccc2c(Cl)c3c(nc2c1)CCCC3)N1CCN(c2ccccc2F)CC1 | -9.3%
Cc1cccc(C(=O)Nc2nnc(S(=O)(=O)N3c4ccccc4CC3C)s2)c1 (stereo not drawn) | 4.0%
COc1ccc(Cl)cc1NC(=O)CSc1nc(-c2cccs2)cc(C(F)(F)F)n1 | 2.3%
COc1cccc2c1cc1c(=O)n(CC(=O)N3CCN(c4cccc(C(F)(F)F)c4)CC3)nc(C)n12 | -3.9%
CCc1ccc(CNC(=O)CN2CCSc3ccccc32)cc1 | -18.7%
CCN(CCCNC(=O)c1ccc(Sc2ccc(Cl)cc2)c(NC(C)=O)c1)c1cccc(C)c1 | 7.8%
COCCn1c(SCC(=O)c2ccc(OC)cc2)nc2cc(C(=O)NC3CCCC3)ccc2c1=O | -0.2%
COc1ccc(Br)c2c1-c1nc(NC(=O)c3ccccc3F)sc1C2 | -11.3%

Later entries:
compound | miR-21 reporter
COc1ccc(C)cc1N(CC(=O)N1CCC(C)CC1)S(=O)(=O)c1ccc(C)cc1 | 0.8%
N#Cc1nc(/C=C/c2ccc(F)cc2)oc1NC1CCCCC1 | -36.4%
CCOc1ccc(CNC(=O)Cc2ccc(NC(=O)N3CCCCc4ccccc43)cc2)cc1OC | -0.9%
Cc1cc(C)cc(NC(=O)NCc2c(-n3cccc3)sc3c2CCCC3)c1 | -3.4%
CC(C)C(=O)Nc1nc2c(s1)CC(C(C)(C)C)CC2 (stereo not drawn) | -60.9%
COCCNC(=O)CCn1c(=O)c2cc(OC)c(OC)cc2n(CC(=O)Nc2ccccc2OC)c1=O | 4.1%
Cc1c(C(=O)N2CCOCC2)oc2c1-c1nn(CC(=O)NCc3ccccc3)cc1CC2 | -5.5%
Cc1cc(C)c(NC(=O)CSc2nc3ccccc3nc2N2CCCCC2)c(C)c1 | -2.5%
CCCC(=O)N1c2ncnn2C2(CCCCC2)[C@@H]2CCCC[C@@H]21 | 6.0%
CCc1ccc2oc(-c3cccc(NC(=O)C(C)(C)Oc4ccc(Br)cc4)c3)nc2c1 | -14.6%
CCCn1c(=N)n(CC(O)COc2ccccc2OC)c2ccccc21 (stereo not drawn) | 10.1%
Cc1ccccc1CN1C(=O)C2(c3ccccc31)N(c1ccccc1)C(=O)CS2(=O)=O (stereo not drawn) | -17.6%
COc1ccc2c(c1)c1c(c(=O)n(-c3cccc(C)c3)c(=O)n1CC(=O)Nc1c(C)cc(C)cc1C)n2C | -5.4%
CSc1nc(NCCCN(C)C)c2c3c(sc2n1)CN(C)CC3 | -2.0%
COc1ccccc1-c1nc(CNC(=O)NC2CCCCC2)c(C)o1 | -4.0%
COc1ccccc1NC(=O)CSc1nnc2c3ccccc3n(C(C)C)c2n1 | 28.7%
O=C(CSc1nc2ccccc2n1Cc1ccccc1Cl)NCc1ccccc1 | -3.4%
COc1ccc(-c2nn(-c3ccc(F)cc3F)c3c2cnc2ccc(F)cc23)cc1 | -4.3%
COc1cccc2sc(N(Cc3cccnc3)C(=O)Cc3ccccc3)nc12 | -1.7%
CCOC(=O)c1cc(-c2ccccc2)n(CCCC(=O)Nc2ccc(C)cc2C)c1C | -2.3%

Further structures follow.
compound | miR-21 reporter
Cc1cc(Nc2cccc(C(F)(F)F)c2)nc2ccc(NC(=O)c3ccc(N(C)C)cc3)cc12 | -10.7%
COc1ccc2c(c1)Cc1sc(NC(=O)c3cccc(F)c3)nc1-2 | -36.7%
Cc1ccc(Cl)cc1N1CCN(S(=O)(=O)c2ccc3c(c2)CCCN3C(=O)C2CCC2)CC1 | -1.2%
CCCCn1c(=O)n(-c2cc(OC)ccc2OC)c(=O)c2c3c(sc21)CN(C(C)=O)CC3 | -2.7%
Cc1cc(C)cc(OCC(=O)Nc2nonc2-c2ccc(Br)cc2)c1 | -9.0%
O=c1oc2ccc3ccccc3c2cc1-c1nnc(Nc2cc(C(F)(F)F)ccc2Cl)s1 | -2.9%
CCN(CC)c1ccc(NC(=O)CSc2nnc(C)c(=O)[nH]2)cc1 | -3.0%
CSc1cccc(Nc2cc(C(=O)NCCCN(Cc3ccccc3)C(C)C)c3ccccc3n2)c1 | ?
Cc1ccc(NC(=O)c2ncn(-c3ccccc3)n2)c(Cl)c1 | -57.7%
O=C(c1ccc(Cl)cc1)N1CCC(c2ccncc2)CC1 | 9.8%
COc1ccc(N2CCN(C(=O)C3CCN(c4nc5ccc(C)cc5[nH]4)CC3)CC2)cc1 | 13.6%
O=C(c1ccccc1Br)N1CCC(c2nc3ccccc3o2)CC1 | 13.0%
